# D2 potentiator = Beta-Arrestin HTS for Positive Allosteric Modulators of the Human D2 Dopamine Receptor: Potentiators. DiscoveRx D2 beta-arrestin cells, luminescence, 90 min; 100% = 57 uM dopamine signal. potentiation, % (no concentration beside the values). actives 0.23% (n = 360,000). AID 624464, 2012; active = potentiation of 50% or more; inconclusive = 30% to 50%; inactive = 30% or less;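 also: compound concentration not given in the record; tested on top of an EC20 dose of dopamine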
# Target sequence (P14416 whole entry, looked up): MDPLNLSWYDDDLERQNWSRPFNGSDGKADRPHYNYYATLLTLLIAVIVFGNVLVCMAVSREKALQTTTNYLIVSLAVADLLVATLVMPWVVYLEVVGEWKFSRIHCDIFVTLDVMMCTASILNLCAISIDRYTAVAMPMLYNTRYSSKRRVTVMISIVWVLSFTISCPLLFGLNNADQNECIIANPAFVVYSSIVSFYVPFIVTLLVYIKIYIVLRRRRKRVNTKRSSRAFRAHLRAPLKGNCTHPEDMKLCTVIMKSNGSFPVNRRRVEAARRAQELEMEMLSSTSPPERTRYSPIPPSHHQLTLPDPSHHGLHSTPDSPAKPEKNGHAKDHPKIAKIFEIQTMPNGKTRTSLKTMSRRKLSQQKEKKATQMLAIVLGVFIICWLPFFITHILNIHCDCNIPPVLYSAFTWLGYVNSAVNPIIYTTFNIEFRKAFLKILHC
#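 PathHunter beta-arrestin assay in DiscoveRx D2 cells. Compounds were added with an EC20 of dopamine (50 nM final) for 90 min at 37 deg C. Luminescence was read 1 h after detection reagent, with 57 uM dopamine as the EC100 control.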
# CtBP-E1A inh = qHTS Assay for Inhibitors of the CtBP/E1A Interaction; CtBP / adenovirus E1A interaction (AlphaScreen); activity change, % (concentration not given with the values); AlphaScreen GST-E1A/His-CtBP binding, 1536-well; hits give low values; control for the full effect not named in the record; actives 0.49% (n = 340,000); in the data active means activity change below about -65%; inconclusive means about -30% to -65%; inactive means above about -30%; also: % is scaled to controls: 0 for no effect and ±100 for the full control effect
#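 Steps: dispense buffer (Tris pH 8.0, NaCl 300 mM, TCEP 1 mM, BSA, Tween 20); add 5X protein mix (GST-E1A, His-CtBP, 125 nM each); pin 23 nL compound; 2 h at 37 °C, dark; add 5X beads (50 ug/mL); 1 h; read.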
# TRPML1 agonist = qHTS for Agonists of the Human Mucolipin Transient Receptor Potential 1 (TRPML1). Mucolipin-1 (Homo sapiens), Q9GZU1. TRPML1-expressing cells, Ca2+ dye fluorescence, FDSS; host cell line not named in the record; reference of the full effect not given here. activation, % (concentration not given with the values). actives 0.12% (n = 410,000). AID 624414, 2012; in the data active = activation above about 50%; inconclusive = about 30% to 50%; inactive = below about 30%; also: 0% is about no effect; the text of the record puts the active cut at 80%
# Target sequence (Q9GZU1 whole entry, looked up): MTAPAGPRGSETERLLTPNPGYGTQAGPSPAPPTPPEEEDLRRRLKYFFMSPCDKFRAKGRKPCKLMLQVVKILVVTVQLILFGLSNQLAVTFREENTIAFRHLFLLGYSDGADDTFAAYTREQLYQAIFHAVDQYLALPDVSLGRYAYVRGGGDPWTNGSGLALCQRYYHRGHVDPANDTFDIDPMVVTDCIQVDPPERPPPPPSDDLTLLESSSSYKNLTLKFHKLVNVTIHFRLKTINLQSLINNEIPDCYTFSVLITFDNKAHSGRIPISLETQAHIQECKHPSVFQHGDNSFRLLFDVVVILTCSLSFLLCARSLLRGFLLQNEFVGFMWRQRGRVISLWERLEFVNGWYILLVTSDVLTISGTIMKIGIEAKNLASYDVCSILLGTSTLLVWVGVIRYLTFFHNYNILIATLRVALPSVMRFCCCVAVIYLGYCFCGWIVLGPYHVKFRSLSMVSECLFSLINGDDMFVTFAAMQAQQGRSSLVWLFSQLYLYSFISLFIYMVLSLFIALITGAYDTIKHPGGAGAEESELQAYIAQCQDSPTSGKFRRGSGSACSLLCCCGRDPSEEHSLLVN
#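 Agonist activity was taken from a 110 s kinetic Ca2+ dye read on the FDSS after pinning compounds onto TRPML1-DL cells. The cells were seeded at 1,500/well with Tet inducer, incubated about 16 h, then dye-loaded at room temperature.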
# TRPML1 inh = qHTS for Inhibitors of the Human Mucolipin Transient Receptor Potential 1 (TRPML1); TRPML1-inducible cells, Ca2+ dye fluorescence, FDSS; hits give low values; inhibition of EC80 agonist-evoked calcium signal; activity change, negative = inhibition, % (test concentration not listed); actives 0.02% (n = 390,000); in the data active means activity change below about -50%; inconclusive means about -30% to -50%; inactive means above about -30%;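 also: stimulus is agonist 54-4 at its EC80 concentration; % is scaled to controls: 0 for no effect and ±100 for the full control effect; compound concentration not given in the record; the text of the record puts the active cut at -80%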
#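 Tet-induced TRPML1-DL cells loaded with Ca8 no-wash calcium dye were read kinetically on FDSS. Compound addition was followed by EC80 agonist 54-4 (4 uM final); inhibition was read over 110 s.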
# TRPV1 potentiator = HTS Assay for Compounds that Act as Potentiators of the Vanilloid Receptor 1 | Transient receptor potential cation channel subfamily V member 1 (Homo sapiens), Q8NER1 | TRPV1-expressing cells, Fluo-8 calcium influx, capsaicin EC20 potentiation; host cell line not named in the record; control for the full effect not named in the record | potentiation, % at 8.33 µM | actives 0.02% (n = 320,000) | AID 540277, 2011; active means potentiation above 80%; inconclusive means 30% to 80%; inactive means below 30%; also: 0% is about no effect
#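 Cells expressing TRPV1 were dye-loaded with Fluo-8 and read kinetically: 10 s baseline, 3 min after compound (agonist portion), then 2 min after EC20 capsaicin (allosteric enhancer portion). Calcium-bound dye fluorescence at 480/520 nm.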
# Six1-Eya2 inh = qHTS Assay for Inhibitors of the Six1/Eya2 Interaction | Homeobox protein SIX1 (Homo sapiens) + Protein phosphatase EYA2 (Homo sapiens), … | AlphaScreen GST-Six1/His-Eya2 binding, biochemical; hits give low values; control for the full effect not named in the record | activity change, % (concentration not given with the values) | actives 0.56% (n = 360,000); in the data active = activity change below about -65%; inconclusive = about -30% to -65%; inactive = above about -30%; also: % is scaled to controls: 0 for no effect and ±100 for the full control effect
#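 Homogeneous AlphaScreen proximity assay pairing GST-Six1 with His-tagged Eya2 (added as 5X mix: 250 nM and 500 nM) in 50 mM Tris pH 8.0, 300 mM NaCl, 1 mM TCEP. Glutathione donor and nickel acceptor beads; 1 h, 37 °C, dark.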
# The depositor's hits bear a star; ? = inconclusive; nt = no result given.
Molecule	D2 potentiator	CtBP-E1A inh	TRPML1 agonist	TRPML1 inh	TRPV1 potentiator	Six1-Eya2 inh
CC(=O)NCC(=O)NC1CC(C)(C)Cc2c1cnn2-c1ccccc1 (centres undefined)	1	7	0.3	10	12	4
O=c1[nH]cc(S(=O)(=O)N2CCN(c3cccc(Cl)c3)CC2)c(=O)[nH]1	0	0	1.6	23	25	-5
S=C(Nc1ccc(Cl)cc1)NC1CC2CCCC(C1)N2C1CCCC1 (centres undefined)	-16	-2	-0.3	2	nt	-5
O=C(Cn1nc(-c2nn(CC(=O)c3ccccc3)c3[n+]2CCCCC3)[n+]2c1CCCCC2)c1ccccc1	-15	7	1.7	24	1	17
COCCNc1nc(NCc2cccs2)nc2ccsc12	-15	3	?	nt	nt	1
O=C(Nc1ccc(F)cc1)Nc1ccc(N2CCCC2)c(S(=O)(=O)Nc2ccccc2Cl)c1	9	-1	-0.1	0	-5	-9
COc1ccc(CNCc2c(F)cccc2F)cc1OC	-17	8	-0.7	-4	2	12
CCN1CCN(C(=O)c2sc3nc(C)nc(N4CCC(C)CC4)c3c2C)CC1	-12	-3	-0.6	13	-20	14
C/C(N)=C(/C#N)C(=O)CSc1ccccc1F	-4	nt	0.1	-5	3	17
C[C@H](CO)N1C[C@H](C)[C@@H](CN(C)C(=O)Nc2ccc(C(F)(F)F)cc2)Oc2ccc(NC(=O)Nc3ccccc3)cc2C1=O	nt	-5	-0.7	6	nt	-1
Cc1ccc(OCC(=O)Nc2ccc(N3CCN(S(C)(=O)=O)CC3)cc2)c(C)c1	-4	8	-0.1	-4	5	5
CN1OC[C@@H]2CN(S(=O)(=O)c3cccc(C(F)(F)F)c3)[C@H](c3ccc(N4CCCCC4)cc3)C[C@@H]21	2	0	-0.6	nt	nt	1
O=C(CCC(=O)Nc1ccc(F)cc1)N/N=C/c1ccc(F)cc1	-11	nt	1.2	-24	-3	2
C=CC[C@H](CC(=O)NCCO)C(=O)N[C@H](C)COC(=O)[C@@H](CC=C)Cc1ccc(F)cc1	4	8	-0.5	-16	nt	-4
COc1ccc(CCNS(=O)(=O)c2ccc(Br)cc2)cc1	-3	10	0.8	21	?	9

# Compounds shown so far that contain a thiophene ring, fused or not:
Molecule	D2 potentiator	CtBP-E1A inh	TRPML1 agonist	TRPML1 inh	TRPV1 potentiator	Six1-Eya2 inh
COCCNc1nc(NCc2cccs2)nc2ccsc12	-15	3	?	nt	nt	1
CCN1CCN(C(=O)c2sc3nc(C)nc(N4CCC(C)CC4)c3c2C)CC1	-12	-3	-0.6	13	-20	14

# Continuation.
Molecule	D2 potentiator	CtBP-E1A inh	TRPML1 agonist	TRPML1 inh	TRPV1 potentiator	Six1-Eya2 inh
OC(c1ccc(F)cc1)c1ncc(-c2ccc(Oc3ccccc3)cc2)[nH]1 (centres undefined)	-9	-18	-0.4	nt	nt	-26
C=CCNc1nc2ccccc2nc1NS(=O)(=O)c1ccc(Br)cc1	-9	3	-0.9	-15	15	3
Clc1nc(NCCc2ccccc2)c2cn[nH]c2n1	-12	-25	2.1	-8	nt	4
COc1ccccc1NC(=O)CSc1nc2c(oc3ccccc32)c(=O)n1C	-1	-4	-0.7	14	?	2
N/C(=N\S(=O)(=O)c1cc(C(F)(F)F)cc(C(F)(F)F)c1)c1ccccc1	-13	nt	0.3	5	-29	4
O[Si](CCCN1CCCCC1)(c1ccc(F)cc1)C1CCCCC1 (centres undefined)	-26	1	-0.4	-1	-3	-14
Oc1ccc2ccccc2c1CNn1cnnc1	-3	12	1.9	-3	-6	0
CC(=O)Nc1cc(-c2cccc(N)c2)cn2c(-c3ccc(C(C)=O)cc3)cnc12	5	-6	-0.7	nt	nt	-14
NNC(=O)c1sc2cc(C(F)(F)F)cnc2c1-c1cccs1	-2	3	-0.2	24	-2	-7
OCc1nc2c(ccc3ccccc32)[nH]1	-5	7	-1.0	16	5	2
O=C(COC(=O)Cn1nnc(-c2ccccc2)n1)Nc1cc(F)ccc1F	-9	5	0.4	0	nt	7
CCOC(=O)c1ccc(N2C(=O)C(CC(N)=O)N(CCc3ccc(OC)c(OC)c3)C2=S)cc1 (centres undefined)	-2	8	-0.1	8	12	14
CCOC(=O)c1cnc2c(Cl)cc(Cl)cc2c1NCCCN1CCOCC1	6	nt	nt	nt	-10	2
CCN(C(=O)c1cc2c(=O)n3cccc(C)c3nc2n1CCCOC)C1CCCCC1	7	38	-0.2	-11	-17	34
O=S(=O)(c1cccs1)N1CCN(c2ccc(O)cc2)CC1	1	-1	0.5	10	26	-2

# 4 entries from above, ordered by formula weight, rising.
Molecule	D2 potentiator	CtBP-E1A inh	TRPML1 agonist	TRPML1 inh	TRPV1 potentiator	Six1-Eya2 inh
Oc1ccc2ccccc2c1CNn1cnnc1	-3	12	1.9	-3	-6	0
Clc1nc(NCCc2ccccc2)c2cn[nH]c2n1	-12	-25	2.1	-8	nt	4
NNC(=O)c1sc2cc(C(F)(F)F)cnc2c1-c1cccs1	-2	3	-0.2	24	-2	-7
O[Si](CCCN1CCCCC1)(c1ccc(F)cc1)C1CCCCC1 (centres undefined)	-26	1	-0.4	-1	-3	-14

# Going on with the list:
Molecule	D2 potentiator	CtBP-E1A inh	TRPML1 agonist	TRPML1 inh	TRPV1 potentiator	Six1-Eya2 inh
CC1(C)NC(=O)N(CC(O)CN2CCCC2)C1=O (centres undefined)	-21	4	0.4	20	0	6
CCCCC(=O)Nc1ccc(NCc2ccc(C)s2)cc1	-7	nt	1.1	8	-7	-11
CCCN(CC(=O)Nc1ccccc1C)C(=O)CCNC(=O)c1ccccc1Cl	-68	7	0.3	6	-3	1
COc1ccc2oc(=O)c(C(=O)N3CCN(c4ccccc4)CC3)cc2c1	8	-6	0.0	9	5	-6
CCOC(=O)c1ccc(NCc2ccc(N(C)C)cc2)cc1	3	?	0.3	1	9	?
Cc1ccc(C)c(N(C(=O)Cn2nnc3ccccc32)C(C(=O)NC(C)(C)C)c2ccsc2)c1 (centres undefined)	7	6	0.8	11	1	1
O=C(O)c1ccc2c(c1)S(=O)(=O)c1ccccc1C2=O	-6	nt	0.8	19	1	8
Cc1ccc(-n2c(SCC(=O)NCc3ccco3)nnc2-c2cccnc2)c(C)c1	-6	-8	0.3	21	-7	-3
CCCn1c(SCC(=O)NCc2ccco2)nnc1C(C)C	1	6	0.2	-6	6	3
COc1ccc(OC)c(/C=C/C(=O)N(C)CC(=O)Nc2ccc(N3CCOCC3)cc2)c1	-27	-7	0.0	12	-2	-1
CC(=O)n1nc(-c2cccnc2)nc1N	-4	-9	0.6	0	3	-5
CC(=O)NC(Cc1ccc(F)c(F)c1)C(=O)NC1CCN(c2nnnn2-c2ccccc2)CC1 (centres undefined)	-9	nt	-0.2	2	-4	-2
COC(=O)C1=C(C)NC(=O)NC1c1ccc(OC)c(OC)c1 (centres undefined)	-5	5	-0.3	1	nt	3
COCCNC(=O)CN1C(=O)c2cccc3cccc1c23	-1	12	0.4	-17	1	11
CC1CCN(CC(=O)Nc2ccc(Br)cc2[N+](=O)[O-])CC1	-4	nt	2.7	1	0	-15
CCOc1cccc(C(=O)N2CCCCC2c2cccnc2)c1 (centres undefined)	0	7	2.1	-8	27	5
COc1ccc(C(=O)COC(=O)c2ccc3c(c2)NC(=O)CS3)c(OC)c1	7	-13	4.1	5	-2	-5
COc1ccc(C(C)C)cc1S(=O)(=O)Nc1ncn[nH]1	2	0	1.2	?	6	77
CCOC1CCCc2oc(-c3ccc(OC)cc3)c(C#CCCO)c21 (centres undefined)	nt	-9	-0.6	nt	nt	-5
CC(NS(=O)(=O)c1ccc(Br)cc1)C(=O)NCC1CCCO1 (centres undefined)	5	10	-0.5	-9	2	0
COc1ccc(OC)c2sc(NC(=O)CCSc3ccccc3)nc12	-7	-7	1.6	1	?	-8
OCC1(Cc2ccc(F)cc2F)CCCN(CCCc2ccccc2)C1 (centres undefined)	-1	6	0.5	1	-12	-8
COc1cc(-n2ccnc2SC)c(Cl)cc1Cl	-33	-1	0.0	-6	-24	-8
CC(=O)NCCCc1nc2ccccc2n1Cc1ccccc1C	-6	0	0.1	17	-18	1
Nn1c(SCC(=O)Nc2cccnc2Cl)nnc1-c1ccccc1	0	-18	1.9	-7	0	5
CC1CCCCC1NC(=O)CCn1c(=O)sc2ccccc21 (centres undefined)	-5	nt	4.8	-1	4	2
Cc1ccc(NC(=O)CCNS(=O)(=O)c2ccc3c(c2)CCC(=O)N3)cc1	-8	1	-0.7	30	-2	0
CS(=O)(=O)N(CC(=O)N1CCCCCC1)c1cccc(F)c1	-3	9	1.1	-7	-5	-5
Cc1cc(C)nc(N/N=C/c2ccccc2OCC(=O)O)n1	5	5	0.6	4	1	10
COc1cccc(NC(=O)CN(C)C(=O)CNC(=O)c2ccc(Oc3ccccc3)cc2)c1	-1	-2	0.5	-12	-23	-9
CCCCN(C(=S)Nc1cccc(C)c1C)c1c(N)n(CCC)c(=O)[nH]c1=O	-4	-5	-0.5	?	0	0
COc1ccccc1N1CCN(S(=O)(=O)CCNC(=O)CC2CCCC2)CC1	-44	-1	-1.1	-3	nt	1
Cc1cccc(NC(=O)C2CC(=O)n3ncnc3N2)c1 (centres undefined)	-7	6	0.4	11	2	3
Cc1cccc(C(=O)Nc2nnc(Cc3ccccc3)s2)c1	6	5	-0.5	0	-22	-1
Cc1cc(C)cc(NC(=O)C2C3C=CC4(O3)C2C(=O)N(CCCN(C)C)C4C(=O)NC2CCCC(C)C2C)c1 (centres undefined)	-6	-1	-0.8	2	19	-15
Nc1cc(Br)c(N)c(Br)c1	-3	-1	-0.1	13	4	-3
O=C(Nc1ccccc1)c1ccc(=O)[nH]n1	-5	-13	0.7	-5	10	0

# Source: PubChem BioAssay (National Center for Advancing Translational Sciences (NCATS))
